# Bioassay records from PubChem.
# PINK1 modulator: A Quantitative High throughput Screen to Identify Chemical Modulators of PINK1 Expression; PINK1 immunofluorescence, high-content cytometry, 24 h; Potency, µM (series often up to 76.6 µM), inactives show at the highest dose activation (PINK1 increase), usual class: activators; 410,000 tested, 0.2% active; active = well fitted activation curve with a large enough effect; inconclusive = small, poorly fitted or top-dose-only effect; inactive = flat fitted curve, though single readings scatter; cell line not stated here;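 further: potency means the concentration at half of the fitted maximal effect; % of control where 0% means no effect; nearly all actives have a fitted effect of over 65% in size; a mitochondrial uncoupler was the plate control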
#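 Measures PINK1 amount and localization on or inside mitochondria by immunofluorescence. Stable cells get compounds at 5 concentrations for 24 hours before fixation and staining; CCCP controls included.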
# ClpP mod: qHTS Assay for Activators of ClpP; Potency, µM (doses to about 57.5 µM), without a hit: at the top dose activity change, negative = active; 340,000 tested, 1.9% active; purified B. subtilis ClpP, FRET peptide cleavage, 20 min; active = well fitted falling curve with a large enough effect; inconclusive = small, poorly fitted or top-dose-only effect; inactive = no such curve, though single readings can be large or run the other way; further: potency means the concentration at half of the fitted maximal effect; the source files actives as falling curves though it sought activators and does not explain the sign; nearly all actives have a fitted effect of over 65% in size; many hits overshoot -100%
# Target sequence (P80244 whole entry, looked up): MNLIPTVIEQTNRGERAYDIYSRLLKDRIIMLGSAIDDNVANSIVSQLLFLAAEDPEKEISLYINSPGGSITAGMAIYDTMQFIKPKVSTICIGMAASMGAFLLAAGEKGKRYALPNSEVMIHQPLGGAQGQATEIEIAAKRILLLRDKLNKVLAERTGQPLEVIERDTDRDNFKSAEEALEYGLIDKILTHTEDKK
#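 Purified B. subtilis ClpP, 10 microg/mL final in Tris/HCl pH8 with KCl, BSA, glycerol and Tween-20, cleaved an Abz/nitrotyrosine-quenched decapeptide. Fluorescence (ex 320, em 430) was read at 0 and 20 min at room temperature. Delta was normalized to 5.8 microM ADEP and DMSO/no-enzyme controls.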
# Sfp inh: qHTS Assay for Inhibitors of Bacillus subtilis Sfp phosphopantetheinyl transferase (PPTase). 310,000 tested, 3.5% active. Biochemical Sfp PPTase activity, qHTS. Potency, µM, inactives show max response, negative = inhibition, most hits filed as inhibitors. 4'-phosphopantetheinyl transferase ffp (Bacillus subtilis), Q9F4F7; active means well fitted inhibition curve with a large enough effect; inconclusive means small, poorly fitted or top-dose-only effect, or another doubt; inactive means no such curve, though single readings can be large or run the other way;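 further: the enzyme is Sfp with the accession as filed and its product quenches rhodamine fluorescence; potency means the concentration at half of the fitted maximal effect; 0% = enzyme reaction without inhibitor and -100% = no enzyme wells; top concentration of the series not given in the record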
#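 Buffer: 50 mM Hepes-Na pH 7.6, 10 mM MgCl2, 0.01% Nonidet P-40, 0.01% BSA. Enzyme 15 nM, pre-exposed to compound 15 min; substrates then added and fluorescence change tracked over 30 min.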
# Menin MLL FP FL: qHTS Assay for Inhibitors Targeting the Menin-MLL Interaction in MLL Related Leukemias: Competition With Fluorescein Labeled MLL-derived Peptide | Fluorescence polarization, fluorescein-MLL peptide displacement from menin | FP activity change, % at 61.4 µM | 290,000 tested, under 10 active | AID 1766, 2009; inconclusive = falling polarisation curve, or a change in total fluorescence; inactive = total fluorescence flat and polarisation flat or rising; no compound was filed as active; the % refers to the polarisation; negative = inhibition;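 further: % of control where 0% means no effect; inhibitors lower the polarisation; unlabelled MLL peptide was the positive control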
# gsp agonist: qHTS for Agonist of gsp, the Etiologic Mutation Responsible for Fibrous Dysplasia/McCune-Albright Syndrome: qHTS. AID 624287, 2012. gsp mutant cells, cAMP HTRF, 30 min; control for the full effect not named in the record. 340,000 tested, 0.13% active. Potency, µM (series often up to 76.9 µM), inactives show top-dose activation (cAMP increase), actives largely listed as activators; active = well fitted activation curve with a large enough effect; inconclusive = small, poorly fitted or top-dose-only effect, or another doubt; inactive = no such curve, though single readings can be large or run the other way; cell line not stated here;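 further: phosphodiesterase inhibitor Ro 20-1724 added with compounds to block cAMP breakdown; potency means the concentration at half of the fitted maximal effect; nearly all actives have a fitted effect of over 60% in size; about a fifth of the inactives were tested at one dose only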
#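 Cells in DMEM/10% FBS with G418 were pretreated with compounds in DMSO plus […] (300 uM stock) for 30 min at 37C. cAMP was measured by HTRF (cAMP-d2 plus anti-cAMP antibody-K) after 30 min at room temperature.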
# gsp antag: qHTS for Antagonists of gsp, the Etiologic Mutation Responsible for Fibrous Dysplasia/McCune-Albright Syndrome: qHTS; gsp-mutant cells, cAMP HTRF, 30 min; control for the full effect not named in the record; AID 624288, 2012; Potency, µM (titrated, usually from 76.9 µM), for inactives: at the highest dose activity change, negative = inhibition, hits mostly inhibitors; 340,000 tested, 0.4% active; active = falling curve of any shape with a large fitted effect; inconclusive = falling curve, mostly with a smaller effect; inactive = flat or rising curve; cell line not stated here;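 further: intracellular cAMP measured with PDE inhibitor Ro 20-1724 present during compound exposure; potency means the concentration at half of the fitted maximal effect; on the % scale 0 is the no-effect control and ±100 the full control effect; nearly all actives have a fitted effect of over 65% in size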
#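 Cells in G418 medium, seeded 16-24 h, 37C; buffer exchange to DPBS + 1 mM CaCl2, 0.5 mM MgCl2, 0.05% BSA; cpds in DMSO + […] (300 uM stock), 30 min 37C; HTRF cAMP detection.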
# D2 agonist: Beta-Arrestin HTS for Positive Allosteric Modulators of the Human D2 Dopamine Receptor: Agonists. activation, % (test concentration not listed). 360,000 tested, 0.084% active. DiscoveRx PathHunter D2 beta-arrestin, luminescence, 90 min; 100% = 57 uM dopamine signal. D(2) dopamine receptor (Homo sapiens), P14416; in the data active = activation above about 40%; inconclusive = about 15% to 40%; inactive = below about 15%; further: compound concentration not given in the record; the text of the record calls up to 30% inactive
# Target sequence (P14416 whole entry, looked up): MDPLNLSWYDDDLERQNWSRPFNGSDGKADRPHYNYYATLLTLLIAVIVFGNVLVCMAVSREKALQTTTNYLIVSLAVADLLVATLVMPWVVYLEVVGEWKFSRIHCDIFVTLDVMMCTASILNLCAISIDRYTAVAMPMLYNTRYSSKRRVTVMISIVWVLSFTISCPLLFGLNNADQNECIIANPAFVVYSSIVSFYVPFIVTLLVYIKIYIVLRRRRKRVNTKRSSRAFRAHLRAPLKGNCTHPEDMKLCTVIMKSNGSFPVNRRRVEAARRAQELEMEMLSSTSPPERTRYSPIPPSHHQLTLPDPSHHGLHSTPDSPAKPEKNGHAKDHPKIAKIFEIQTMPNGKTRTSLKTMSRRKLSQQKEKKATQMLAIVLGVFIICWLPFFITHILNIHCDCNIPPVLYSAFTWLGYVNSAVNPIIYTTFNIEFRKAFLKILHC
#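 Agonist mode: compounds alone added to overnight-plated D2 PathHunter cells for 90 min at 37 C, with 57 uM final dopamine (EC100) defining full response. Beta-arrestin recruitment detected by chemiluminescent reagent, read after 1 h at ambient temperature.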
# Starred values were filed as active, the others as inactive; ? = inconclusive; / = not tested or not shown; & = joins results of further samples; [ ] = another dose, or the depositor's remark.
nr	canonical_smiles	PINK1 modulator	Sfp inh	Menin MLL FP FL	D2 agonist	ClpP mod	gsp antag	gsp agonist
1	CCn1c(SCC(=O)N2CCC(C)CC2)nnc1-c1ccc(S(=O)(=O)N2CCN(C)CC2)cc1	/	?	3.7	1.6	32µM*	-16%	-27%
2	O=C(NC1CCCCCC1)c1c(O)c2ccccc2[nH]c1=O	1.6%	7%	-2.3	-3.3	-7.2%	2%	-21%
3	Cc1ccc(NC(=O)/C(=C/c2cccs2)NC(=O)c2ccco2)cc1	5.6%	10%	0.7	-5.6	?	-5%	-5%
4	Cc1cccc(NC(=O)CN(C)C(=O)c2ccc(N3CCCCCC3)c([N+](=O)[O-])c2)c1C	-2.8%	/	/	0.1	/	-18%	-15%
5	CCCn1c2c(c(O)c(C(=O)Nc3ccc(OCC)cc3)c1=O)CCCC2	1.6%	-4%	-0.6	-1.2	-4.8%	5%	-28%
6	Cc1nn(C)cc1C(C(=O)NC1CCCCC1)N(C(=O)Cc1cccs1)c1ccc(C(C)C)cc1 (centres undefined)	4.8%[38.3 µM]	12%	-2.1	-4.7	4.5%	-7%	-4%
7	CS(=O)(=O)N(CC(=O)NC1CCCC1)Cc1ccc(Cl)cc1	-2.7%[38.3 µM]	-3%	1.3	-0.3	-2.4%	1%	5%
8	Cc1c(C)n(CC(O)CNCCO)c2ccccc12 (centres undefined)	2.8%	10%	6.9	0.9	3.6%	7%	-5%
9	CCOc1ccccc1NS(=O)(=O)c1cn(C)c(=O)n(C)c1=O	0.3%	-8%	0.8	-5.0	0.4%	9%	-20%
10	COc1ccc(C(=O)/C=C/c2ccc(OC(=O)c3cc(OC)c(OC)c(OC)c3)cc2)cc1	1.2%	?	-0.2	0.1	-0.4%	-14%	8%[15.4 µM]
11	O=C1c2ccccc2C(=O)N1CCCCc1cn(C[C@H]2CC[C@H](Cn3cc(CCCCN4C(=O)c5ccccc5C4=O)nn3)O2)nn1	1.1%	/	/	3.1	0.3%	-24%	/
12	COc1ccc(C(=O)c2c(C)oc3ccc(O)c(CN4CCOCC4)c23)cc1	1.4%	56µM*	2.3	-0.9	-1.1%	-2%	1%
13	COc1ccc(-c2sc(Nc3cccc4ccccc34)n[n+]2C)c(C)c1C	1.4%	/	/	-1.0	-5.4%	2%	9%
14	COc1cc(C)ccc1S(=O)(=O)NC(=O)Cn1nnc(COc2ccc3c(c2)CCCC3)c1C	0.9%	/	/	-3.4	1.0%	/	/
15	O=C(N/N=C/c1ccccc1F)NC1CCCCC1	0.0%	-2%	-0.9	1.0	-0.5%	6%	11%
16	Cc1ccc2nc(NC(=O)CCCC(=O)O)sc2c1	0.5%	20%	0.5	-5.7	0.0%	11%	8%
17	Cc1cc(C(F)F)nn1CC(=O)NC1CCCCCC1	-0.1%	15%	/	-4.1	-0.9%	-8%	10%
18	COc1ccc(/C=N/NC(=O)c2nnn(-c3nonc3N)c2CN(C)C2CCCCC2)cc1	3.5%	5%	-2.3	-0.6	-4.0%	-8%	12%
19	O=C(N/N=C/c1ccc(N2CCOCC2)cc1)c1ccc(NS(=O)(=O)c2cccs2)cc1	1.8%	2%	4.9	-1.1	/	-31%	20%[15.4 µM]
20	O=C(O)c1cnn(-c2ccccc2)c1-c1ccncc1	-0.2%	-6%	-8.6	1.0	/	8%	3%[15.4 µM]
21	CCN(CC(=O)Nc1ccc(S(=O)(=O)N2CCOCC2)cc1)Cc1ccccc1	-3.6%	/	/	-1.7	/	2%	-25%[15.4 µM]
22	COc1ccc(S(=O)(=O)N(C)c2c(C)n(C)n(-c3ccccc3)c2=O)cc1OC	-2.1%	7%	2.6	-2.2	-1.7%	11%	8%
23	O=C(CCN1CCN(S(=O)(=O)c2ccc(F)cc2)CC1)Nc1ccccc1F	-1.6%	-2%	/	-1.1	-0.7%	?	-27%
24	O=C(O)C1C(=O)NCC1c1ccccc1 (centres undefined)	-2.6%	13%	-3.0	0.8	/	13%	26%
25	O=c1c(CN2CCN(c3cccc(Cl)c3)CC2)coc2c(Cl)cc(Cl)cc12	-1.0%	?	0.3	1.6	0.7%	14%	34%
26	CCCc1cc(=O)[nH]c(SCc2cc(C(=O)OC)c(C)o2)n1	-0.6%	2%	0.6	1.9	-1.9%	-28%	1%
27	COc1ccccc1-c1cc2nc(NCCOc3ccccc3)ccn2n1	1.0%	/	/	1.0	5.1%	/	/
28	Cc1ccc(-c2[nH]ncc2C(=O)c2cccc(F)c2)c(O)c1	7.2%	10%	-2.5	-1.6	-14%	-11%	16%[15.4 µM]
29	CCSC(SCC)[C@H](O)[C@@H](O)[C@H](O)[C@H](O)CO	3.7%	9%	4.5	-4.1	4.2%	7%	/
30	OC(c1ccccc1)(c1nc(/C=C/c2ccc(C(F)(F)F)cc2)cs1)C(F)(F)F (centres undefined)	0.2%	/	/	13	?	/	/
31	N#Cc1cn(CC(=O)N2CCCC2)c2ccccc12	-1.5%	4%	1.1	-1.7	-9.4%	-6%	-45%[inhibitor]
32	O=C(N/N=C/c1c[nH]c2ccccc12)c1ccn[nH]1	4.9%	18%	1.9	-3.7	-2.9%	-18%	-5%
33	COc1ccc(C(CNC(=O)c2cc(C)oc2C)N2CCOCC2)cc1 (centres undefined)	-0.3%	-11%	0.0	-0.7	-3.9%	3%	-16%
34	Cc1ccc(C(=O)N2CCOCC2)cc1[N+](=O)[O-]	1.1%	-1%	0.8	-1.1	2.3%	4%	2%
35	CCOC(=O)c1c(NC(=O)c2cnn3c2NC(c2cccc(OC)c2)CC3C(F)(F)F)sc2c1CCCC2 (centres undefined)	10%	?	0.7	-3.8	-14%	10%	-21%
36	Cc1ccc(C)c(S(=O)(=O)Nc2ccc(C(N)=O)cc2)c1	0.7%	10%	2.9	4.2	/	-5%	?
37	O=C(NC(c1ccc2c(c1)OCO2)c1ccccn1)C1CCN(CCOc2ccccc2)CC1 (centres undefined)	-1.1%	/	/	-2.8	-0.2%	/	/
38	CN(C)S(=O)(=O)c1cccc(NC(=O)CNCc2ccccn2)c1	2.3%	?	-3.2	-4.2	0.4%	-7%	0%
39	O=C(Nc1cccc(C(=O)N2CCOCC2)c1)c1ccc([N+](=O)[O-])cc1	-0.3%	14%	/	-0.2	0.1%	2%	30%
40	CC[N+]1(C)CCC(O)(/C=C/c2ccccc2)C(C(=O)/C=C/c2ccccc2)C1 (centres undefined)	-6.4%	/	/	-7.4	2.1%	24%	15%
41	CCOc1ccc(-c2nnc(-c3cccnc3)o2)cc1OCC	1.9%	22%	-0.2	-0.8	-16%	4%	-28%
42	CCC(C)NC(=S)Nc1ccc2nc(N3CCOCC3)cc(C)c2c1 (centres undefined)	2.1%	-11%	-0.2	-2.5	3.4%	-8%	15%
43	COc1ccc(Oc2nc(SC)nc3ccccc23)cc1	1.2%	-20%	1.4	-2.0	-4.5%	-9%	9%
44	CCN(CC1COc2ccccc2O1)C(=S)NC1CC2CCC1C2 (centres undefined)	1.3%	7%	1.7	-2.3	-2.1%	6%	10%
45	Cc1ccc(CN2CCN(C3CCC3)CC2CCO)cc1 (centres undefined)	0.5%	1%	-2.3	1.9	-2.4%	10%	1%[15.4 µM]
46	COc1cccc(CNC(=O)c2ccc(CS(=O)c3ccccc3)o2)c1 (centres undefined)	0.1%&0.2%	5%	4.7	4.4	-0.8%&-1.4%	-9%	-24%
47	Cc1ccc(C(=O)Nc2ccc3[nH]c(=O)[nH]c3c2)c(C)c1	0.3%	18%	3.0	-3.8	-13%	6%	21%
48	COc1cc2[nH]c(=S)nc(Nc3ccc(NC(C)=O)cc3)c2cc1OC	0.8%	10%	0.2	-0.2	7.0%	-3%	4%
49	CCOC(=O)c1c(C)[nH]c(C)c1S(=O)(=O)NCC1CCN(Cc2ccccc2F)CC1	-0.2%	5%	/	4.3	0.2%	7%	-7%
50	Cc1ccc2c(c1)N(C(=O)CCC(=O)NC1CCCCCC1)CC(C)O2 (centres undefined)	1.3%	12%	-1.0	-1.0	1.0%	-9%	1%

# Next results
nr	canonical_smiles	PINK1 modulator	Sfp inh	Menin MLL FP FL	D2 agonist	ClpP mod	gsp antag	gsp agonist
51	Cc1ccc(S(=O)(=O)N2CCCCC2)cc1NC(=O)Nc1ccc(Cl)cc1Cl	7.3%	6%	3.0	-2.8	-1.4%	-9%	-8%
52	CCC(NC(=O)c1ccccc1NC(=O)c1ccco1)C(=O)NNC(=O)c1ccncc1 (centres undefined)	2.5%	15%	0.8	2.0	-0.7%	2%	?
53	CC(=O)c1ccc(N2CCC(C(=O)O)CC2)cc1	-1.6%	11%	-0.9	1.0	/	1%	-1%
54	C[C@H](CO)N1C[C@H](C)[C@@H](CN(C)S(=O)(=O)c2cn(C)cn2)Oc2ccc(NC(=O)Nc3ccccc3)cc2C1=O	-0.3%	/	/	2.7	-0.1%	-2%	-2%
55	Cc1cc(C)cc(NC(=O)C(OC(=O)c2cc[n+]([O-])cc2)c2ccccc2)c1 (centres undefined)	1.0%	/	/	3.3	0.4%	-2%	-45%[inhibitor]
56	O=C(COC(=O)COc1ccc(Br)cc1)NNC(=O)c1ccccc1	-0.4%	/	/	-0.9	-1.5%	2%	4%
57	CCCOc1ccc(/C(O)=C2/C(=O)C(=O)N(CCN(C)C)C2c2ccc(OC)c(OC)c2)cc1 (centres undefined)	0.0%	79µM*	1.7	-2.9	3.6%	5%	0%
